Bioassay records as filed in PubChem BioAssay.
HSV replic up: HSV replication enhancement; 0.005% of 220,000 active; maximum fold increase; HSV replication augmentation in cells, fold increase;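 active = peak rise of 1.5-fold or more in the series; tested in PC3 cells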;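 note: first round at 10 µM; read as green reporter fluorescence; hits show the peak of a series up to 25 µM; 1 = signal of infected wells without compound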
GALR2 ag: GALR2 (human) receptor agonism | GALR2-expressing cells, agonist activation read-out | activation, %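 (tested at 5 µM)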 | 0.48% of 140,000 active | AID 803;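 active = above mean plus 3 SD of all compounds, about 5% in these data, not always enough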;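 note: 0% = vehicle buffer wells and 100% = reference agonist at full effect; tested in CHO reporter cells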
Target sequence (O43603 whole entry, looked up): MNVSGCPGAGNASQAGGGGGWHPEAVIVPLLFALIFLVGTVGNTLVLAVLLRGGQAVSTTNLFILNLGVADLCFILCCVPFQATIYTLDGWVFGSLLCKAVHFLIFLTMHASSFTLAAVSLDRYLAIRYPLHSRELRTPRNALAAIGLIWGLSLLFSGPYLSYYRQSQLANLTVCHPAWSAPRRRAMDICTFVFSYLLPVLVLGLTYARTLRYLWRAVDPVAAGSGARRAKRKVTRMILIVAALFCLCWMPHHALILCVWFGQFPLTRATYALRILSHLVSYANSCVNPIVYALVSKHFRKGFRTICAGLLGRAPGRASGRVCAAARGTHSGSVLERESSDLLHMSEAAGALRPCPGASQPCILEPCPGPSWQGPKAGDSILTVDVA
RGS16-Gao HTS: regulators of human RGS16-Galphao interaction. AID 1441. binding response (% of control), % at 10 µM. 0.38% of 220,000 active. bead-based flow cytometry RGS16-Galphao binding, fluorescence; actives lie on both sides. O15492+P09471;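 active = below 25% or above 175%, edge rows of some plates excepted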;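 note: Galphao activated by GDP with aluminum fluoride before binding; 100% = wells without compound and 0% = beads without RGS; some results beyond the cut were filed as inactive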
Target sequence (O15492 whole entry, looked up): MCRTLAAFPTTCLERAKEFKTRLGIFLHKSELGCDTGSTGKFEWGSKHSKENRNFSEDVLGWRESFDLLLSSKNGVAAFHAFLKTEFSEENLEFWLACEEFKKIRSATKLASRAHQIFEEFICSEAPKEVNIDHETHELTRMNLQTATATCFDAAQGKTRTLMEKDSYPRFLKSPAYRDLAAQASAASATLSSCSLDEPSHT
Target sequence (P09471 whole entry, looked up): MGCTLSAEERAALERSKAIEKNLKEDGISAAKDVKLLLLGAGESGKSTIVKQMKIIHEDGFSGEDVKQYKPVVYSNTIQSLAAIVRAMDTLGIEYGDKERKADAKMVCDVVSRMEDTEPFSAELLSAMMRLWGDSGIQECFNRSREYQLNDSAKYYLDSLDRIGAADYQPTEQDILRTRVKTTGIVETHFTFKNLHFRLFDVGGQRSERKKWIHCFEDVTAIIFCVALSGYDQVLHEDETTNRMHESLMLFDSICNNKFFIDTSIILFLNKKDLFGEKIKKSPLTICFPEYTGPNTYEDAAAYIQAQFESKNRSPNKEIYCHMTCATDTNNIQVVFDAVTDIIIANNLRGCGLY
PKD1 inh: PKD1 (human) kinase inhibition; Q15139; PKD1 kinase fluorescence polarization assay; inhibition, %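 (about 10 µM by stock and volumes)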; 0.056% of 200,000 active;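 active = inhibition of 50% or more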;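 note: controls were vehicle for no effect and a reference inhibitor for full effect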
INS promoter inh: TRM-6 insulin promoter activity inhibition; inhibition, % at 2 µM; 0.9% of 130,000 active; TRM-6 cells (human fetal islet line), insulin promoter-eGFP reporter, imaging; reporter expression induced with tamoxifen; AID 1273;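 active = inhibition above the mean plus 3 SD, with well images judged a real hit on visual review, cut at about 60% in these data, passing the limit was not always enough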
INS promoter inh cell count: recorded beside INS promoter inh, whose call it bears; normalized cell count, %; measured here: cell count, toxicity; reference of the scale not given here;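 cells exposed to compound for 48 h; stained nuclei by imaging scaled within each plate; lower means fewer cells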
HSV replic up primary fold: second read-out of HSV replic up, no call of its own (marks repeat the call); fold increase; compound at 10 µM; measured here: primary screen fold increase 10 uM; tested in PC3 cells;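 GFP signal in the first replicate; 1 = infected wells without compound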
* hit, by the source's call; i = inactive; nt = not tested or not shown.

compound	PKD1 inh	INS promoter inh cell count	RGS16-Gao HTS	INS promoter inh	HSV replic up primary fold	GALR2 ag	HSV replic up
CC1=CCC2C(=O)N(C(C)c3ccccc3)C(=O)C2C1 (configuration not stated)	-3	85	108	4	1.1	-1.8	i
CCOc1ccc(NC(=O)c2ccccc2NS(C)(=O)=O)cc1	6	110	104	0	0.88	-2.7	i
COc1ccc(-c2[nH]ncc2CNC(C)c2cn(C)nc2C)c(F)c1 (configuration not stated)	-4	nt	100	nt	0.88	nt	i
O=C(Cc1ccccc1)N1CCCC(c2nc(-c3ccc(S(=O)(=O)N4CCCC4)cc3)no2)C1 (configuration not stated)	0	111	111	-62	0.81	-2.7	i
CCOC(=O)CC(NC(=O)CCc1c(C)nc2nc(C)nn2c1C)c1ccc(OC(C)C)cc1 (configuration not stated)	-4	70	101	-29	0.97	nt	i
CC(C)CCNC(=O)C1CC(c2cccc([N+](=O)[O-])c2)=NO1 (configuration not stated)	-5	82	104	13	0.95	0.3	i
CCOC(=O)c1nn(-c2ccc(F)cc2)c2nc(Nc3ccccc3)cc(=O)n12	-9	98	89	-23	1	2.1	i
O=C(CCCSc1nc2ccccc2[nH]1)N1CCN(c2ccc([N+](=O)[O-])cc2)CC1	-7	71	113	-5	0.98	-1.0	i
CCN(CC(=O)NC1CCS(=O)(=O)C1)c1ccc(S(C)(=O)=O)cc1[N+](=O)[O-] (configuration not stated)	-4	65	108	-17	0.94	-2.9	i
CCOC(=O)N1CCN(c2c(NCc3ccccc3Cl)c(=O)c2=O)CC1	nt	nt	111	nt	0.82	nt	i
O=C(NC1CCCCC1)c1cc(C2CC2)on1	nt	nt	101	nt	1	nt	i
Cc1sc2nc3ccc(N4CCCC4)nn3c(=O)c2c1C	4	nt	86	nt	nt	nt	nt
CCC(C)(C)NC(=O)Cc1ccc(C)cc1	-1	112	104	-47	0.78	0.9	i
COc1ccc(P(=O)(COc2ccc([N+](=O)[O-])cc2)c2ccc(OC)cc2)cc1	4	115	97	19	0.85	-0.2	i
COc1cccc2sc(Nc3nc(-c4ccncc4)cs3)nc12	3	nt	109	nt	0.78	nt	i
COc1cccc(CN2CCN(Cc3nc4c(s3)CCCC4)CC2CCO)c1 (configuration not stated)	3	132	100	11	1	nt	i
CC(C)(C#N)N([O-])C=C[N+](=O)C(C)(C)C#N	-10	nt	99	nt	1	-4.3	i
COc1cc(C)c(C(=O)Oc2cc(C)c(C(=O)O)c(O)c2C)c(OC)c1C	7	nt	97	nt	0.74	nt	i
Cc1ccc(C(=O)CSc2nc(C)cc(SCc3nnc(-c4ccccc4)o3)n2)cc1	5	36	110	0	0.95	-1.7	i
CCC1CCCCN1C(=O)COC(=O)c1cc(Br)ccc1Cl (configuration not stated)	2	nt	99	nt	0.96	nt	i
O=C(O)c1ccc(COc2ccccc2C=C2C(=O)c3ccccc3C2=O)cc1	25	100	93	-73	1.8	-2.0	i
Nc1cccc(S(=O)(=O)NC2=NCCC2)c1	2	96	393	27	0.98	-0.1	i
CCO[C@H]1OC(C(=O)O)=C[C@@H](C2CC2)[C@@H]1CCCO	-1	nt	94	nt	1	nt	i
O=C1c2ccsc2SCCN1Cc1ccccc1	4	nt	104	nt	1	nt	i
COC(=O)c1c(NC(=O)CN2CCC(C)CC2)c2c(C)cccc2n1C	5	nt	108	nt	0.67	-1.4	i
Cc1ccc(NC(=S)NC(NC(=O)C(C)(C)C)C(Cl)(Cl)Cl)c(C)c1 (configuration not stated)	4	145	100	16	1	-0.1	i
Cn1c(C(=O)OCC(=O)NCCc2ccccc2)cc2sccc21	-7	131	101	-26	0.91	-1.7	i
Nc1ncnc2nc(Sc3ccc(Cl)cc3)[nH]c12	0	116	82	62	0.86	-3.3	i
COc1ccc(C(=O)N(CCCO)Cc2cc3c(C)ccc(C)c3[nH]c2=O)cc1OC	8	135	102	-11	0.92	-1.6	i
COc1ccc(OC)c(CCNC(=O)C2CCN(c3nnc(-n4cccc4)s3)CC2)c1	-4	nt	106	nt	0.87	-1.5	i
Cc1occc1C(=O)NCc1cccc(CNC(=O)c2ccoc2C)c1	3	97	96	-15	0.99	1.9	i
CCN(CC)c1ccc(CNc2nc3ccccc3n2CC)cc1	nt	nt	102	nt	0.98	nt	i
NS(=O)(=O)c1ccc(NC(=O)COC(=O)c2cc(Cl)ccc2[N+](=O)[O-])cc1	nt	nt	100	nt	0.86	nt	i
CCCCCCC(=O)N/N=C(\C)Cc1ccccc1	15	87	98	9	0.99	0.1	i
O=C(/C=C/c1cccc(F)c1)Nc1ccc(S(=O)(=O)Nc2ncccn2)cc1	nt	nt	99	nt	1.2	nt	i
COc1ccccc1-n1cnnc1SCC(=O)N1CC(=O)Nc2ccccc21	-2	108	104	-3	1	-3.0	i
Cc1cc2ccccc2n1CCNC(=O)c1ccc(S(=O)(=O)N2CCCCC2)cc1	8	nt	99	nt	0.99	-2.0	i
O=c1c2ccccc2nc(-c2cccc(Cl)c2)n1O	4	63	87	-20	0.9	0.8	i
C=CCN(CC=C)c1ccc(N2C(=O)C3CCCCC3C2=O)cc1[N+](=O)[O-] (configuration not stated)	3	nt	95	nt	0.9	nt	i
CCOC(=O)C1CCN(C(=O)/C=C/c2ccc(OC)cc2)CC1	0	61	109	17	1	-1.5	i

Structural class, those above containing an aryl thioether with sulfur outside any ring (4)
compound	PKD1 inh	INS promoter inh cell count	RGS16-Gao HTS	INS promoter inh	HSV replic up primary fold	GALR2 ag	HSV replic up
O=C(CCCSc1nc2ccccc2[nH]1)N1CCN(c2ccc([N+](=O)[O-])cc2)CC1	-7	71	113	-5	0.98	-1.0	i
Cc1ccc(C(=O)CSc2nc(C)cc(SCc3nnc(-c4ccccc4)o3)n2)cc1	5	36	110	0	0.95	-1.7	i
Nc1ncnc2nc(Sc3ccc(Cl)cc3)[nH]c12	0	116	82	62	0.86	-3.3	i
COc1ccccc1-n1cnnc1SCC(=O)N1CC(=O)Nc2ccccc21	-2	108	104	-3	1	-3.0	i

Later entries.
compound	PKD1 inh	INS promoter inh cell count	RGS16-Gao HTS	INS promoter inh	HSV replic up primary fold	GALR2 ag	HSV replic up
COc1ccc(/C=C2/C(=O)N(CC3CCCO3)C(=S)N2C)c(OC)c1 (configuration not stated)	5	134	110	-40	0.44	-3.7	i
CCOC(=O)CSc1nc(N)c(C#N)c(-c2cccs2)c1C#N	-12	77	101	29	0.89	-3.5	i
CCOC(=O)C(Cc1cc(C(C)=O)ccc1OCC)C(=O)OCC	-5	205	105	-24	0.89	-1.9	i
CN(CCNC(=O)CCCOc1cc(=O)n(C)c2ccccc12)Cc1ccccc1	2	91	107	13	0.99	nt	i
CCc1nnc(NC(=O)c2sc3nc4cc(C)ccc4cc3c2N)s1	-5	nt	82	nt	nt	-0.6	nt
COc1cccc(CC2(CO)CCN(Cc3cnc(N4CCOCC4)s3)CC2)c1	1	nt	105	nt	0.97	nt	i
Cc1onc(-c2c(Cl)cccc2Cl)c1NC(=O)NNc1ccccc1	nt	nt	90	nt	1	nt	i
Cc1oc(-c2ccoc2)nc1CN(Cc1ccccc1)CC1CC1	-7	nt	113	nt	0.97	nt	i
COc1cccc(Nc2nc3ccccc3c(=O)[nH]2)c1	-5	nt	101	nt	0.87	nt	i
CC1CC(C)(C)CC2(C1)NC(=O)N(CC(=O)NC1CCCc3ccccc31)C2=O (configuration not stated)	-8	76	55	-36	1	-0.1	i
O=c1c2ccccc2c(-c2ccccc2)nn1-c1ccccc1	nt	nt	102	nt	0.92	nt	i
COC(=O)/C(=N/Nc1ccccc1Cl)Sc1nnc(C(O)c2ccccc2)n1-c1ccccc1 (configuration not stated)	4	115	103	-71	0.83	-0.8	i
COc1cc(C2CC(=O)Oc3c(C(CCN4CCOCC4)c4ccc(N(C)C)cc4)c(OC)cc(OC)c32)cc(OC)c1OC (configuration not stated)	nt	nt	96	nt	0.83	nt	i
O=C(O)CCCC(=O)Nc1ccc(Oc2cccc(C(F)(F)F)c2)nc1	nt	nt	104	nt	0.98	nt	i
CCNc1nc(C)cc(COC)c1C#N	-4	90	64	29	1.1	-1.6	i
O=C(CC1C(=O)NCCN1Cc1c(F)cccc1Cl)NC1CCCCCC1 (configuration not stated)	nt	nt	103	nt	1	nt	i
CC1(C)OC(=O)N(CC(=O)Nc2ccccc2)C1(C)O (configuration not stated)	-2	nt	105	nt	1	nt	i
COc1cc(-c2nc(C)c(C(C)=O)n2O)ccc1OCC(=O)Nc1ccc(Cl)cc1	1	104	95	29	0.89	nt	i
CCC1(C)Cc2c(sc3c2c(=O)n(C)c2nnc(SCc4ccc5c(c4)OCO5)n32)CO1 (configuration not stated)	13	118	105	-36	1.1	-1.8	i
Nc1c(-c2ccc(F)cc2)cnn1C1CCS(=O)(=O)C1 (configuration not stated)	3	nt	107	nt	0.84	-1.6	i
CCC(=O)N1CCN(c2ccccc2NC(=S)NC(=O)c2cccc([N+](=O)[O-])c2)CC1	-5	152	96	-76	0.89	nt	i
O=C(O)c1cc(-c2ccco2)[nH]n1	4	119	100	12	1	-2.9	i
CCC(c1nnnn1C(C)(C)CC)N(CCCN1CCOCC1)Cc1cc2cccc(C)c2[nH]c1=O (configuration not stated)	-12	65	103	-7	1	2.3	i
COc1ccc(NC(=O)C2CCCN(S(=O)(=O)c3cccnc3)C2)c(OC)c1 (configuration not stated)	-23	nt	105	nt	1	-1.3	i
CC(C)NC(=O)COc1ccc2c(c1)C(=O)CC(C)(C)O2	-2	nt	99	nt	1	nt	i
Cc1ccc(C(=O)N/C(=C\c2ccco2)C(=O)NCC2CCCO2)cc1C (configuration not stated)	-1	73	99	-26	1.1	-0.9	i
CCOC(=O)C1(Cc2ccccc2Cl)CCN(C(=O)CN2CCOC2=O)CC1	-4	nt	100	nt	1.2	nt	i
CS(=O)(=O)N(CC(=O)N1CCN(c2ccccc2)CC1)Cc1ccc(Cl)cc1	4	88	104	-50	1.1	-2.5	i
CCOC(=O)c1sc(NC(=O)CSc2nnc(Cc3ccccc3)o2)c(C#N)c1C	-6	105	19*	-52	nt	2.1	nt
Nc1nnc(SCCCC(=O)c2ccc(F)cc2)s1	65*	76	99	-22	1	0.0	i
Cc1nc(NC(=O)COc2ccc(Cl)cc2)sc1C(=O)N(C)C	9	159	103	-5	0.95	-0.4	i
Cc1cc(C)[n+](-c2ccc(C(C)C)cc2)c2[nH]c(=O)[nH]c(=O)c12	-6	128	98	29	1	-0.5	i
O=c1c2ccccc2nc(/C=C/c2cccc([N+](=O)[O-])c2)n1CCCO	-4	90	nt	10	0.89	-2.6	i
Cc1c(CCO)sc[n+]1CC(=O)OCCC12CC3CC(CC(C3)C1)C2	-2	106*	106	67*	0.84	-0.6	i
Cc1ccc2cc(CN(Cc3ccco3)C(=O)C3CCCCC3)c(=O)[nH]c2c1C	-7	84	87	-29	1	-1.2	i
COC(=O)Oc1ccc(/C=N/NC(=O)CN(c2ccccc2Cl)S(C)(=O)=O)cc1OC	3	115	87	29	1.1	-2.8	i
Cc1ccc2nc(-c3ccc(SCC(=O)Nc4nc(C)cs4)nc3)[nH]c2c1	8	113	97	3	0.98	0.1	i
O=c1c(-c2nnc(SCc3ccc(Cl)c(Cl)c3)o2)cccn1Cc1ccccc1	-7	83	95	4	0.88	-0.5	i
CCN1C(=O)CC(N2CCC(Nc3ccc(F)cc3)CC2)C1=O (configuration not stated)	1	121	93	-8	0.95	-2.7	i
OC(CN1CCN(c2cccc(C(F)(F)F)c2)CC1)c1c[nH]c2ccccc12 (configuration not stated)	-6	93	100	31	0.84	-0.3	i
CCOC(=O)Cc1cc(=O)n2[nH]c(-c3ccccc3)c(-c3ccccc3)c2n1	1	nt	100	nt	0.96	nt	i
COc1ccccc1-c1cc(C(F)(F)F)nc(N2CCCC2)n1	-7	nt	96	nt	1.1	0.1	i
COc1ccccc1-n1c(CNc2c(C)cccc2C)nnc1SCC(=O)N1CCOCC1	6	nt	104	nt	0.83	1.4	i
N=c1n(CCN2CCOCC2)c2ccccc2n1Cc1ccccc1Br	-14	nt	109	nt	0.88	-0.8	i
Cc1nc(Nc2nc(CSc3ccc(Cl)cc3)cc(=O)[nH]2)nc2ccccc12	-6	88	94	-27	1.1	-0.8	i
CC1Cc2ccccc2N1S(=O)(=O)c1ccc(Cl)nc1 (configuration not stated)	nt	nt	102	nt	1.1	nt	i
